Yeast UUG start: modulators of start codon recognition fidelity in yeast | S. cerevisiae UUG-firefly luciferase reporter, luminescence/redox ratio | activity score, % at 18.7 µM | 350,000 compounds, 0.13% hits;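 active = replicate mean at a twofold rise or more, about +100% in these data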;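 note: firefly luciferase made from a UUG start codon reports start codon fidelity; reporter light over untreated wells divided by growth signal over untreated wells; some hits fall short of that in this replicate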
* = called active by the depositor. The list is partial; the hit share may differ from the screen's.

What do the screens show for `COc1cccc(C(=O)N2C[C@H]3[C@@H](c4ccccc42)[C@H](CO)N3C(=O)c2ccc(F)cc2)c1`?
Yeast UUG start: 15

How did C[C@H]1CN([C@@H](C)CO)C(=O)c2cc(NC(=O)CCCN(C)C)ccc2O[C@@H]1CN(C)S(=O)(=O)c1cccs1 do in these assays?
Yeast UUG start: 12

How did CCN1[C@@H]2Cn3c(ccc(C4=CCCCC4)c3=O)[C@H]1[C@@H](C(=O)N1CCc3ccccc3C1)[C@@H]2CO do in these assays?
Yeast UUG start: 21

Results for C[C@@H]1CN([C@H](C)CO)C(=O)c2cc(NS(=O)(=O)c3cn(C)cn3)ccc2O[C@@H]1CN(C)C ?
Yeast UUG start: -4

What do the screens show for `C[C@@H]1CN([C@@H](C)CO)C(=O)Cc2cc(NC(=O)CCC(F)(F)F)ccc2O[C@@H]1CN(C)Cc1ccc(C(=O)O)cc1`?
Yeast UUG start: -18

How did C[C@H](CO)N1C[C@H](C)[C@H](CN(C)C(=O)NC2CCCC2)OCc2cnnn2CCCC1=O do in these assays?
Yeast UUG start: 14

What do the screens show for `CCCNC(=O)N1[C@H](CO)[C@@H]2c3ccccc3N(C(=O)C3CCOCC3)C[C@@H]21`?
Yeast UUG start: -3

What do the screens show for `CCC(=O)NC[C@H]1[C@@H](c2ccc(C3=CCCC3)cc2)[C@H](CO)N1C(=O)C1CC1`?
Yeast UUG start: -5

Results for C[C@@H]1CN([C@@H](C)CO)C(=O)c2cc(NC(=O)Cn3cnnn3)ccc2O[C@H]1CN(C)C(=O)NC1CCCCC1 ?
Yeast UUG start: -7

How did COc1ccccc1C#Cc1ccc2c(c1)[C@@H]1[C@@H](CCN1C(=O)c1ccc(F)cc1)[C@@H](CO)N2 do in these assays?
Yeast UUG start: -5

Results for N#Cc1cccc(-c2ccc([C@H]3[C@@H](CO)N4CCCCN(C(=O)Nc5ccc(F)cc5)C[C@@H]34)cc2)c1 ?
Yeast UUG start: 16

What do the screens show for `CCNC(=O)[C@H]1[C@H](CO)[C@H]2Cn3c(ccc(/C=C/c4ccccc4)c3=O)[C@@H]1N2C(=O)c1ccncc1`?
Yeast UUG start: 0

Results for CCC(=O)Nc1ccc2c(c1)OC[C@@H](C)N(Cc1cncnc1)C[C@@H](C)[C@H](OC)CN(C)C2=O ?
Yeast UUG start: -12

Results for COc1ccccc1C#Cc1ccc([C@H]2[C@@H](CO)N3CCCCN(C(=O)C4CC4)C[C@@H]23)cc1 ?
Yeast UUG start: 16

What do the screens show for `CO[C@H]1CN(C)C(=O)c2cc(NC(=O)C3CC3)ccc2OC[C@H](C)N(Cc2cccc(F)c2)C[C@H]1C`?
Yeast UUG start: -9

What do the screens show for `C[C@@H]1CN([C@@H](C)CO)C(=O)c2cccc(NC(=O)c3ccncc3)c2O[C@@H]1CN(C)S(=O)(=O)c1ccc(F)cc1`?
Yeast UUG start: -9

How did Cc1ccc(S(=O)(=O)Nc2ccc3c(c2)CC(=O)N([C@@H](C)CO)C[C@H](C)[C@H](CN(C)C(=O)NC2CCCCC2)O3)cc1 do in these assays?
Yeast UUG start: 1

What do the screens show for `O=S(=O)(c1ccc(F)cc1)N1CCCCN2[C@H](CO)[C@H](c3ccc(-c4ccccc4)cc3)[C@H]2C1`?
Yeast UUG start: 8

Results for COc1ccc(NC(=O)Nc2cccc3c2O[C@H](CN(C)C(=O)Nc2ccc(F)cc2)[C@H](C)CN([C@@H](C)CO)C3=O)cc1 ?
Yeast UUG start: 4

What do the screens show for `CNC[C@@H]1Oc2ccc(NC(=O)Cn3cnnn3)cc2C(=O)N([C@@H](C)CO)C[C@@H]1C`?
Yeast UUG start: -16

What do the screens show for `CN(C)C(=O)c1ccc(-c2ccc3c(c2)[C@H]2[C@H](CCN2C(=O)c2ccccc2F)[C@H](CO)N3)cc1`?
Yeast UUG start: -5

How did C[C@H]1CN([C@@H](C)CO)C(=O)c2cc(NC(=O)Nc3ccc4c(c3)OCO4)ccc2O[C@H]1CN(C)Cc1ccc(C(=O)O)cc1 do in these assays?
Yeast UUG start: 13

What do the screens show for `COc1cccc(S(=O)(=O)Nc2ccc3c(c2)[C@@H]2C[C@H](CC(=O)N(C)C)O[C@@H](CO)[C@@H]2O3)c1`?
Yeast UUG start: 15

How did O=C(Nc1ccccc1F)N1C[C@@H]2[C@H](c3ccccc31)[C@@H](CO)N2C(=O)Cc1cccnc1 do in these assays?
Yeast UUG start: -8

Results for CCC(=O)NC[C@@H]1[C@@H](c2ccc(C3=CCCC3)cc2)[C@H](CO)N1C(C)=O ?
Yeast UUG start: 21

Results for O=C(c1ccc2c(c1)OCO2)N1C[C@@H]2[C@H](c3ccccc31)[C@@H](CO)N2Cc1cccnc1 ?
Yeast UUG start: 3

Results for CN(C)C(=O)c1ccc(-c2ccc3c(c2)[C@@H]2[C@@H](CCN2Cc2ccc4c(c2)OCO4)[C@@H](CO)N3)cc1 ?
Yeast UUG start: 4

Results for O=S(=O)(NC[C@H]1[C@@H](c2ccccc2)[C@H](CO)N1CC1CC1)c1ccccc1 ?
Yeast UUG start: 11

Results for CN1C(=O)c2cc(NC(=O)C3CC3)ccc2OC[C@@H]2O[C@H](CC(=O)NCCN3CCCC3)CC[C@@H]21 ?
Yeast UUG start: 2

How did O=C(NC[C@@H]1[C@@H](c2ccccc2)[C@H](CO)N1Cc1ccccn1)C1CCC1 do in these assays?
Yeast UUG start: -31

Results for C[C@@H]1CN([C@@H](C)CO)C(=O)c2cc(NC(=O)Nc3ccc4c(c3)OCO4)ccc2O[C@@H]1CN(C)Cc1ccc(Cl)c(Cl)c1 ?
Yeast UUG start: -5

Results for CN1c2ccc(Br)cc2[C@H]2[C@H](CCN2C(=O)Cc2ccccc2)[C@H]1CO ?
Yeast UUG start: 18

What do the screens show for `CO[C@H]1CN(C)C(=O)c2ccc(NS(=O)(=O)c3cn(C)cn3)cc2OC[C@@H](C)N(CC2CC2)C[C@H]1C`?
Yeast UUG start: 5

What do the screens show for `CCS(=O)(=O)N1CCCCN2[C@H](CO)[C@H](c3ccc(-c4ccc(C#N)cc4)cc3)[C@@H]2C1`?
Yeast UUG start: 4

What do the screens show for `COc1ccc(NC(=O)N(C)C[C@@H]2Oc3ccc(NC(=O)Nc4ccc5c(c4)OCO5)cc3C(=O)N([C@@H](C)CO)C[C@@H]2C)cc1`?
Yeast UUG start: 10

Results for CN1c2ccc(Br)cc2[C@H]2[C@H](CCN2C(=O)C2CC2)[C@H]1CO ?
Yeast UUG start: -20

Sorted by SMILES length (highest first): 9 of the compounds above
What do the screens show for `COc1ccc(NC(=O)N(C)C[C@@H]2Oc3ccc(NC(=O)Nc4ccc5c(c4)OCO5)cc3C(=O)N([C@@H](C)CO)C[C@@H]2C)cc1`?
Yeast UUG start: 10

Results for C[C@@H]1CN([C@@H](C)CO)C(=O)c2cc(NC(=O)Nc3ccc4c(c3)OCO4)ccc2O[C@@H]1CN(C)Cc1ccc(Cl)c(Cl)c1 ?
Yeast UUG start: -5

What do the screens show for `CO[C@H]1CN(C)C(=O)c2ccc(NS(=O)(=O)c3cn(C)cn3)cc2OC[C@@H](C)N(CC2CC2)C[C@H]1C`?
Yeast UUG start: 5

Results for CN1C(=O)c2cc(NC(=O)C3CC3)ccc2OC[C@@H]2O[C@H](CC(=O)NCCN3CCCC3)CC[C@@H]21 ?
Yeast UUG start: 2

Results for O=C(c1ccc2c(c1)OCO2)N1C[C@@H]2[C@H](c3ccccc31)[C@@H](CO)N2Cc1cccnc1 ?
Yeast UUG start: 3

Results for CCC(=O)NC[C@@H]1[C@@H](c2ccc(C3=CCCC3)cc2)[C@H](CO)N1C(C)=O ?
Yeast UUG start: 21

Results for O=S(=O)(NC[C@H]1[C@@H](c2ccccc2)[C@H](CO)N1CC1CC1)c1ccccc1 ?
Yeast UUG start: 11

How did O=C(NC[C@@H]1[C@@H](c2ccccc2)[C@H](CO)N1Cc1ccccn1)C1CCC1 do in these assays?
Yeast UUG start: -31

Results for CN1c2ccc(Br)cc2[C@H]2[C@H](CCN2C(=O)Cc2ccccc2)[C@H]1CO ?
Yeast UUG start: 18

Next section:
Results for COc1ccc(S(=O)(=O)N2CC[C@@H]3[C@H]2c2cc(-c4ccccc4F)ccc2N(C)[C@H]3CO)cc1 ?
Yeast UUG start: -6

How did C[C@H]1CN([C@@H](C)CO)C(=O)Cc2cc(NS(C)(=O)=O)ccc2O[C@@H]1CN(C)C(=O)Nc1ccc(F)cc1 do in these assays?
Yeast UUG start: -3

What do the screens show for `O=C(c1ccc(F)cc1)N1CCCCN2[C@H](C1)[C@H](c1ccc(-c3ccc(F)cc3)cc1)[C@@H]2CO`?
Yeast UUG start: -1

What do the screens show for `CN1CCN(C(=O)C[C@@H]2CC[C@@H]3[C@H](COC[C@H](O)CN3C(=O)c3ccc(F)cc3)O2)CC1`?
Yeast UUG start: 1

How did CC(=O)N1[C@H](CO)[C@H](c2ccc(-c3ccc(F)cc3)cc2)[C@@H]1CNC(=O)C1CC1 do in these assays?
Yeast UUG start: 12

Results for CS(=O)(=O)Nc1ccc2c(c1)[C@H]1C[C@@H](CC(=O)NCc3ccccc3F)O[C@H](CO)[C@H]1O2 ?
Yeast UUG start: -1

Results for COc1cccc(S(=O)(=O)N2CCCCN3[C@H](CO)[C@@H](c4ccc(-c5ccccc5)cc4)[C@H]3C2)c1 ?
Yeast UUG start: 6

What do the screens show for `O=C(Nc1ccccc1F)N1C[C@@H]2[C@H](c3ccccc31)[C@@H](CO)N2C(=O)C1CCCCC1`?
Yeast UUG start: 12

How did O=C(O)C[C@@H]1C[C@H]2c3cc(NS(=O)(=O)c4ccccc4)ccc3O[C@H]2[C@H](CO)O1 do in these assays?
Yeast UUG start: 2

Results for COc1cccc(C#Cc2ccc3c(c2)[C@@H]2[C@@H](CCN2C(=O)c2ccccc2F)[C@@H](CO)N3C)c1 ?
Yeast UUG start: -6

What do the screens show for `CN(C)C(=O)c1cccc(-c2ccc([C@H]3[C@@H](CO)N4CCCCN(S(C)(=O)=O)C[C@H]34)cc2)c1`?
Yeast UUG start: -13

Results for O=C(CC(F)(F)F)N1C[C@@H]2[C@H](c3ccccc31)[C@@H](CO)N2C(=O)C1CCOCC1 ?
Yeast UUG start: 4

What do the screens show for `C[C@H]1CN([C@@H](C)CO)C(=O)c2cccc(NC(=O)c3nc4ccccc4s3)c2O[C@@H]1CN(C)Cc1ccc(C(F)(F)F)cc1`?
Yeast UUG start: 1

Results for Cc1cccc(S(=O)(=O)N2CC[C@@H]3[C@H](CO)Nc4ccc(C#Cc5cccc(F)c5)cc4[C@@H]32)c1 ?
Yeast UUG start: 2

What do the screens show for `O=C(C1CCCCC1)N1C[C@@H]2[C@H](c3ccccc31)[C@H](CO)N2C(=O)Cc1ccccn1`?
Yeast UUG start: -10

What do the screens show for `COc1cccc(-c2ccc([C@H]3[C@@H](CO)N4CCCCN(CC5CCOCC5)C[C@@H]34)cc2)c1`?
Yeast UUG start: -2

Results for CC(=O)N1[C@H](CO)[C@@H]2c3ccccc3N(S(=O)(=O)c3ccc(F)cc3)C[C@@H]21 ?
Yeast UUG start: -6

How did COc1ccc(S(=O)(=O)N(C)C[C@@H]2Oc3ccc(NC(=O)Cc4cn(C)c5ccccc45)cc3C(=O)N([C@@H](C)CO)C[C@H]2C)cc1 do in these assays?
Yeast UUG start: -5

Results for CN(C)CC#Cc1ccc([C@H]2[C@H]3CN(C(=O)C4CCC4)CCCCN3[C@H]2CO)cc1 ?
Yeast UUG start: 1

Results for O=C(Nc1ccccc1)N1CCCCN2[C@H](CO)[C@H](c3ccc(C#CC4CC4)cc3)[C@H]2C1 ?
Yeast UUG start: 5

Results for C[C@@H]1CN([C@H](C)CO)C(=O)c2cc(NS(=O)(=O)c3cccs3)ccc2O[C@H]1CN(C)C ?
Yeast UUG start: -9

How did C[C@H]1CN([C@@H](C)CO)C(=O)c2cc(NS(=O)(=O)c3ccc(F)cc3)ccc2O[C@H]1CN(C)Cc1ccc2c(c1)OCO2 do in these assays?
Yeast UUG start: 1

What do the screens show for `C[C@@H](O)C#Cc1ccc([C@@H]2[C@H](CO)N3CCCCN(CC4CCOCC4)C[C@@H]23)cc1`?
Yeast UUG start: 18

What do the screens show for `COc1ccccc1S(=O)(=O)N1C[C@@H](O)COC[C@@H]2O[C@H](CC(=O)O)CC[C@H]21`?
Yeast UUG start: 6

Results for CC(=O)N(C)C[C@@H]1[C@H](c2ccc(-c3ccccc3)cc2)[C@H](CO)N1C(=O)C1CC1 ?
Yeast UUG start: -1

Results for C[C@@H]1CN([C@H](C)CO)C(=O)c2cccc(NS(C)(=O)=O)c2O[C@@H]1CN(C)S(=O)(=O)c1ccc(Cl)cc1 ?
Yeast UUG start: 8

What do the screens show for `C[C@H]1CN([C@@H](C)CO)C(=O)c2cccc(NC(=O)c3ccncc3)c2O[C@@H]1CN(C)S(=O)(=O)c1cccs1`?
Yeast UUG start: 9

How did O=C(C[C@H]1CC[C@@H]2[C@H](COC[C@@H](O)CN2C(=O)Nc2ccccc2)O1)NC1Cc2ccccc2C1 do in these assays?
Yeast UUG start: 10

What do the screens show for `C[C@H](CO)N1C[C@H](C)[C@H](CN(C)S(=O)(=O)c2cn(C)cn2)Oc2ccc(NC(=O)Nc3ccc(C(F)(F)F)cc3)cc2C1=O`?
Yeast UUG start: 14

Results for C[C@@H]1CN([C@@H](C)CO)C(=O)Cc2cc(NC(=O)CCCCCC(=O)Nc3ccccc3N)ccc2O[C@H]1CN(C)C ?
Yeast UUG start: 51

How did COCCN(C[C@H]1[C@H](c2ccccc2)[C@@H](CO)N1C(=O)C1CCC1)C(C)=O do in these assays?
Yeast UUG start: -6

Results for Cc1ccc(S(=O)(=O)N(C)C[C@@H]2Oc3ccc(NC(=O)C4CC4)cc3CC(=O)N([C@H](C)CO)C[C@@H]2C)cc1 ?
Yeast UUG start: 3

What do the screens show for `COc1ccc(C(=O)N2C[C@@H]3[C@H](c4ccccc42)[C@H](CO)N3Cc2ccc(Cl)cc2)cc1`?
Yeast UUG start: 4

How did Cc1noc(C)c1NC(=O)Nc1ccc2c(c1)C(=O)N(C)[C@H]1CC[C@H](CC(=O)Nc3ccccc3F)O[C@@H]1CO2 do in these assays?
Yeast UUG start: 0
